Source: PubChem
ClpP mod: qHTS Assay for Activators of ClpP; ATP-dependent Clp protease proteolytic subunit (Bacillus subtilis (strain 168)), P80244; purified B. subtilis ClpP, FRET peptide cleavage, 20 min; Potency, µM (highest dose often 57.5 µM), for inactives: at the highest dose activity change, negative = active; actives 1.9% (n = 340,000); active = well fitted falling curve with a large enough effect; inconclusive = small, poorly fitted or top-dose-only effect; inactive = no such curve, though single readings can be large or run the other way; note: potency is the fitted concentration of half-maximal effect; the source files actives as falling curves though it sought activators and does not explain the sign; nearly all actives have a fitted effect of over 65% in size; many hits overshoot -100%
Target sequence (P80244 whole entry, looked up): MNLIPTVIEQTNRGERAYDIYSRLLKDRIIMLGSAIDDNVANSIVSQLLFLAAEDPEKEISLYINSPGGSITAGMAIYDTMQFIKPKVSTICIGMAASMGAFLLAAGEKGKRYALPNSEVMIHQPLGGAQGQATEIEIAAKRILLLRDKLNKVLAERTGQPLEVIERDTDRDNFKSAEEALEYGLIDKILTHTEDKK
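Buffer: 100 mM Tris/HCl pH8, 100 mM KCl, 0.05% low protease BSA, 2.5% glycerol, 0.01% Tween-20. ClpP 10 microg/mL final; 20 min RT; delta FRET normalized to ADEP and DMSO controls.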
gsp antag: gsp mutant antagonism. gsp-mutant cells, cAMP HTRF, 30 min; control for the full effect not named in the record. actives 0.4% (n = 340,000). Potency, µM (titrated, usually from 76.9 µM), without a hit: at the highest dose activity change, negative = inhibition, usual class: inhibitors; active = falling curve of any shape with a large fitted effect; inconclusive = falling curve, mostly with a smaller effect; inactive = flat or rising curve; cell line not stated here;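 note: intracellular cAMP measured with PDE inhibitor Ro 20-1724 present during compound exposure; potency is the fitted concentration of half-maximal effect; % is set by controls: 0 for no effect and ±100 for the full control effect; nearly all actives have a fitted effect of over 65% in size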
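Cells in G418 medium, seeded 16-24 h, 37C; buffer exchange to DPBS + 1 mM CaCl2, 0.5 mM MgCl2, 0.05% BSA; cpds in DMSO + […] (300 uM stock), 30 min 37C; HTRF cAMP detection.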
gsp agonist: activates gsp, the McCune-Albright syndrome mutation. gsp mutant cells, cAMP HTRF, 30 min; control for the full effect not named in the record. Potency, µM (top dose mostly 76.9 µM), for the others: at the top dose activation (cAMP increase), usual class: activators. actives 0.13% (n = 340,000). AID 624287; active = well fitted activation curve with a large enough effect; inconclusive = small, poorly fitted or top-dose-only effect, or another doubt; inactive = no such curve, though single readings can be large or run the other way; cell line not stated here;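 note: phosphodiesterase inhibitor Ro 20-1724 added with compounds to block cAMP breakdown; potency is the fitted concentration of half-maximal effect; nearly all actives have a fitted effect of over 60% in size; about a fifth of the inactives were tested at one dose only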
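Cells stably selected in G418 were plated at 2000/well, grown 16-24 hr, then given compounds in DMSO with the PDE inhibitor […] (300 uM solution added) for 30 min at 37C; cAMP was read by HTRF.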
Menin MLL FP FL: menin-MLL binding inhibition, fluorescein peptide. Fluorescence polarization, fluorescein-MLL peptide displacement from menin. 290,000 tested, under 10 active. FP activity change, % at 61.4 µM. AID 1766; inconclusive = falling polarisation curve, or a change in total fluorescence; inactive = total fluorescence flat and polarisation flat or rising; no compound was filed as active; the % refers to the polarisation; negative = inhibition;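 note: % of control where 0% means no effect; inhibitors lower the polarisation; unlabelled MLL peptide was the positive control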
Sfp PPTase inh: inhibitors of Bacillus subtilis Sfp phosphopantetheinyl transferase; Biochemical Sfp PPTase activity, qHTS; Potency, µM, inactives show max response, negative = inhibition, most hits filed as inhibitors; actives 3.5% (n = 310,000); AID 1490; active = well fitted inhibition curve with a large enough effect; inconclusive = small, poorly fitted or top-dose-only effect, or another doubt; inactive = no such curve, though single readings can be large or run the other way;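 note: the enzyme is Sfp with the accession as filed and its product quenches rhodamine fluorescence; potency is the fitted concentration of half-maximal effect; 0% = enzyme reaction without inhibitor and -100% = no enzyme wells; top concentration of the series not given in the record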
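With Hepes-Na pH 7.6 buffer containing 10 mM MgCl2, Sfp (15 nM) modified BHQ-2-YbbR (12.5 uM) using rhodamine-CoA (5 uM). Two reads 30 minutes apart at 525/598 nm yielded each well's rate.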
CtBP-E1A inh: blocks the CtBP interaction with E1A. AlphaScreen GST-E1A/His-CtBP binding, 1536-well; hits give low values; control for the full effect not named in the record. activity change, % (no concentration beside the values). actives 0.49% (n = 340,000). AID 651724; in the data active means activity change below about -65%; inconclusive means about -30% to -65%; inactive means above about -30%; note: % is set by controls: 0 for no effect and ±100 for the full control effect; compound concentration not given in the record
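In 5 uL wells, 23 nL compound meets equimolar GST-E1A and His-CtBP (5X stock 125 nM each) for 2 h, 37 °C. Beads (5X, 50 ug/mL) then 1 h, 37 °C, dark.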
TRPV1 PAM: enhances activation of the human vanilloid receptor TRPV1; Q8NER1; actives 0.02% (n = 320,000); TRPV1-expressing cells, Fluo-8 calcium influx, capsaicin EC20 potentiation; host cell line not named in the record; control for the full effect not named in the record; potentiation, % at 8.33 µM; active means potentiation above 80%; inconclusive means 30% to 80%; inactive means below 30%; note: 0% is about no effect
Target sequence (Q8NER1 whole entry, looked up): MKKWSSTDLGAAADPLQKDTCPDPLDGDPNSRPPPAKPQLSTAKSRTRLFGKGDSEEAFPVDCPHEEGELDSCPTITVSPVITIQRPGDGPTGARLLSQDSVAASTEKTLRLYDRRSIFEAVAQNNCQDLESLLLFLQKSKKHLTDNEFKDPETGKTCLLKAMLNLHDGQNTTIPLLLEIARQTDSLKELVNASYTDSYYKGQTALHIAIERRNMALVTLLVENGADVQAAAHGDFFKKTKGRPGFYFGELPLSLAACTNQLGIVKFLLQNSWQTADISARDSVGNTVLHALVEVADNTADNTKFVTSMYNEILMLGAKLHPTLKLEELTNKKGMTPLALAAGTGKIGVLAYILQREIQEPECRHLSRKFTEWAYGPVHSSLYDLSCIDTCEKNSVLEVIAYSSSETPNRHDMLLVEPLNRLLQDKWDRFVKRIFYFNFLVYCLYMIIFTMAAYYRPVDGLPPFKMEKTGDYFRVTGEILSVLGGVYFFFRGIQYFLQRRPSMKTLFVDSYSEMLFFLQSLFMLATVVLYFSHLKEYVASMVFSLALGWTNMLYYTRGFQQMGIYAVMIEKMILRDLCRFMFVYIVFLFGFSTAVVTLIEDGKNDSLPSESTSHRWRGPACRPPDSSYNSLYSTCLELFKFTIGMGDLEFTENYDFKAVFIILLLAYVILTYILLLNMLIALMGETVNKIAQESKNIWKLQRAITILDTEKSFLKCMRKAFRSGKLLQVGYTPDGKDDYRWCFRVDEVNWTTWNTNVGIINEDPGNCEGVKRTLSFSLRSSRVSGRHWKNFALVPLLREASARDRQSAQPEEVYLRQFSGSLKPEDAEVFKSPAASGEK
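Fluo-8 calcium influx in TRPV1-expressing cells, kinetic read (ex 480/em 520 nm). Compound added and read 3 min for agonist activity, followed by capsaicin at EC20 final and 2 min further read for enhancement.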
* hit, by the source's call; ? = inconclusive; . = not tested or not shown; [ ] = another dose, or the depositor's remark. Compounds as they come, and some 5.3% of all compounds hit somewhere here.

SMILES	ClpP mod	gsp antag	gsp agonist	Menin MLL FP FL	Sfp PPTase inh	CtBP-E1A inh	TRPV1 PAM
Cn1c(=O)n(C)c2cc(S(=O)(=O)N3CCCc4ccccc43)ccc21	-2.8%	-11%	-1%	1.4	-30%	-10	-2
COC(=O)C1=C(C)n2nnnc2NC1c1cc2ccccc2o1 (centres undefined)	-0.6%	-6%	-14%	1.1	1%	-1	-12
O=C(COC(=O)C12CC3CC(CC(C3)C1)C2)Nc1ccc([N+](=O)[O-])cc1Br	-1.1%	-13%	-4%	4.7	-17%	0	1
CC12CCC(C(=O)Nc3ccc(SC(F)F)cc3)(CC1=O)C2(C)C (centres undefined)	-2.7%	-32%	-6%	8.2	10%	-20	2
CCCCc1nc2ccccc2c(NC(=O)CN(CC)CC)c1CCC	0.6%	-28%	-27%	0.0	?	-1	-20
CN(CC1CCCN(CCc2cccc(C(F)(F)F)c2)C1)C(=O)c1ccc2nc[nH]c2c1 (centres undefined)	-0.1%	0%	-10%	.	12%	-4	5
Cc1cc2c(c(SCC(=O)NCc3ccccc3Cl)n1)C(=O)OC2	.	-6%	?	0.0	18%	4	22
NN=C(c1ccccc1)c1ccccc1	.	3%	-36%[inhibitor][15.4 µM]	.	.	-4	.
O=C(c1ccco1)N1CCN(C(=O)c2cc3c(=O)oc4ccccc4c3s2)CC1	-0.2%	17%	-52%[inhibitor]	-4.4	15%	7	2
O=C(OCN1C(=O)c2ccccc2C1=O)/C(=C\c1ccco1)NC(=O)c1ccccc1	0.7%	-2%	-31%[inhibitor]	1.6	17%	0	-13
CC(=O)Nc1ccc(S(=O)(=O)Nc2ccc(C)c([N+](=O)[O-])c2)cc1	-0.6%	-5%	-32%[inhibitor]	1.4	-5%	.	?
O=C(CN1CCCc2ccccc21)NCc1ccccc1Cl	-6.1%	-2%	-2%	6.0	0%	-1	-12
CCCc1nc(SCC(=O)c2ccc(OC)cc2)c2ccccc2n1	.	?	11%	7.6	79µM*	21	1
O=C(Cc1ccc2c(c1)CCCC2)Nc1ccccc1Br	1.0%	-10%	-38%[inhibitor]	-0.7	-2%	-22	4
Cc1ccc(O)c(CO)n1	.	-1%	13%[15.4 µM]	6.0	3%	-4	.
CN(C)c1ccc(/C=N\NC(=O)c2csnn2)cc1	-13%	-19%	-15%	4.7	40µM*	-6	.
O=C(Cc1ccc(Cl)cc1)Oc1cccc2cccnc12	6.1%	9%	-1%	2.6	-6%	-83*	16
C[C@@H]1C=C(C(=O)NCc2nc3ccccc3[nH]2)O[C@H](OCc2ccc(CO)cc2)C1	-5.0%	-2%	.	-3.5	-2%	-6	4
CSc1nc(=O)n(-c2ccccc2)c(C)c1C(C)=O	0.6%	7%	-31%	1.7	16%	9	3
Cc1ccc(NC(=O)Nc2ncccc2C)cc1	-7.3%	3%	3%	-2.5	2%	-16	8
CCN1CCN(Cc2c(C)[nH]c3ccc(C(=O)OC)cc3c2=O)CC1	-13%	7%	-38%[inhibitor]	0.7	17%	0	2
Cc1ccc(F)cc1NC(=O)N1CCCN(C(=O)OC(C)(C)C)CC1	-0.3%	5%	-1%[15.4 µM]	-0.6	8%	-15	-3
COc1ccc(C2/C(=C(/O)c3ccc(OC(C)C)cc3)C(=O)C(=O)N2CCCN2CCOCC2)cc1 (centres undefined)	-0.4%	11%	-43%[inhibitor]	3.1	-22%	12	13
COc1ccc(Cl)cc1NC(=O)C1CCCN(S(=O)(=O)c2cccc3nonc23)C1 (centres undefined)	1.3%	8%	-5%	3.1	18%	-2	11
O=C(CNC(=O)c1ccc(Cl)cc1)Nc1ccc(S(=O)(=O)Nc2ncccn2)cc1	.	14%	7%[15.4 µM]	-5.4	-5%	-2	-5
CCN(CC)C(=O)Cn1ncc2c1-c1ccccc1OC2	-5.2%	9%	-45%[inhibitor]	-0.6	6%	0	-6
N#CCCN(C(=O)COC(=O)c1ccc(Cl)nc1)c1ccc2c(c1)OCCO2	1.6%	.	-30%[inhibitor]	.	.	-3	.
CCc1ccccc1NC(=O)c1onc(C)c1Cl	-0.2%	7%	?	2.5	24%	4	.
CN(C)S(=O)(=O)Oc1ccc(Cl)cc1C(=O)Nc1ccc(F)cc1F	.	10%	1%	0.9	-18%	12	-7
CCOCCCNC(=O)C(c1ccccc1)N(Cc1ccc2c(c1)OCO2)C(=O)CNC(C)=O (centres undefined)	1.0%	0%	5%	1.9	19%	-1	-12
COc1cc(/C=C/C(=O)OC(C)C(=O)Nc2c(C)n(C)n(-c3ccccc3)c2=O)ccc1OCC#N (centres undefined)	.	2%	18%	-1.0	14%	-1	-12
O[C@H]1CN(CC2CCCCC2)[C@@H](c2ccc(Cl)cc2)C[C@@H]1n1cc(C2CC2)nn1	-1.9%	.	?	.	.	-3	.
O=C(Nc1ccccc1C(=O)N1CCOCC1)c1ccc(Br)cc1	-3.7%	2%	5%	.	11%	-9	-4
CCOc1ccc(C(=O)Nc2ccccc2C#N)cc1[N+](=O)[O-]	2.0%	7%	-6%[15.4 µM]	3.5	-3%	2	-13
Cc1ccc(S(=O)(=O)NCc2csc(C)n2)cc1	.	1%	0%	-15	-1%	-7	6
CNC(=S)NNC(=O)c1noc(C)c1C(=O)N1CCN(C(c2ccccc2)c2ccccc2)CC1	.	-7%	-31%[inhibitor]	0.8	7%	-2	10
CC1CCCC(C)N1C(=O)c1cc(-c2ccc(Cl)c(Cl)c2)on1 (centres undefined)	0.7%	-5%	-11%	-0.9	-23%	20	-8
O=C(COc1ccccc1)N1N=C(c2cccnc2)CC1(O)C(F)(F)F (centres undefined)	-2.0%	6%	-25%	0.4	7%	0	-12
O=C(NCc1cccs1)[C@@H]1CSC2c3ccccc3C(=O)N21 (some centres undefined)	-1.0%	11%	11%	-1.8	0%	-4	-4
CN1CCN(NC(=O)c2cc(-c3ccc(Br)s3)nc3ccccc23)CC1	.	-1%	19%[15.4 µM]	12	-14%	-4	6
CC(C)N(C(=O)[C@H]1C[C@H](CC(=O)NCC23CC4CC(CC(C4)C2)C3)C(=O)N2CCc3c([nH]c4ccc(Cl)cc34)[C@]12C)C(C)C	2.2%	-21%	.	.	.	3	.
C/C(=N\Nc1ccc([N+](=O)[O-])cc1)c1ccco1	.	-1%	6%[15.4 µM]	33[activator]	13%	-1	1
O=C(Nc1cccn(Cc2cccc(F)c2)c1=O)NC1CCCCC1	4.4%	0%	-25%	2.7	-5%	-5	-11
CCc1ccc2nc(NC(=O)CSCc3c(C)noc3C)sc2c1	-1.5%	-37%	1%	0.7	0%	-14	-3
COc1cccc(N(C(=O)C2COc3ccccc3O2)C(C(=O)NC2CCCCC2)c2ccc(O)cc2)c1 (centres undefined)	.	.	.	-0.1	24%	.	-1
COc1ccccc1NC(=O)C1CCCN(S(=O)(=O)c2c(C)noc2C)C1 (centres undefined)	.	-3%	?	-2.6	12%	-1	-4
O=C(NC(=Nc1nc2ccccc2o1)NC(=O)c1ccccc1)c1ccccc1	.	-4%	19%	1.1	?	-13	0
CCN1CCc2c(sc(NC(=O)Cc3ccccc3)c2C(N)=O)C1	-3.4%	11%	6%	-13	4%	-1	7
COc1cc(CNc2ccc(NC(C)=O)cc2)ccc1OCc1ccccc1C	4.3%	1%	2%	0.0	-4%	.	12
CCn1c(=O)n(CC(=O)NCc2ccccc2OC)c(=O)c2ccccc21	-9.5%	-12%	-40%[inhibitor]	0.1	9%	2	28
Cc1ccnc(SCC(=O)N2CCc3ccccc3C2)n1	.	5%	-2%	2.3	-10%	4	3
CC(=O)NCCC(=O)Nc1cc(S(=O)(=O)N2CCOCC2)ccc1Oc1ccc(F)cc1	.	3%	28%[15.4 µM]	.	.	3	25
COc1ccc(/C=C2\SC(=S)N(CC(=O)NNC(=O)c3ccncc3)C2=O)cc1	.	-14%	-21%[15.4 µM]	?	?	.	-1
CCN(CC)C(=O)[C@H]1C[C@H](CC(=O)NCCN2CCOCC2)C(=O)N2CCc3c([nH]c4cc(CCC(=O)N(C)C)ccc34)[C@]12C	-3.6%	8%	.	.	.	4	.
S=C1NC(c2ccccc2)=NCN1c1ccc(Cl)cc1	-1.1%	-12%	13%	-1.0	18%	-4	-3
NS(=O)(=O)c1cccc(NC(=O)COC(=O)/C(=C/c2cccs2)c2cccs2)c1	0.9%	?	-8%[15.4 µM]	4.7	-19%	-3	-13
COc1ccccc1NC(=O)CSc1nnnn1-c1ccccc1OC	1.3%	-16%	-20%	0.9	12%	0	-3
Cc1cccc(/C=C2/Sc3ccc(C(=O)N4CCOCC4)cc3NC2=O)c1	0.7%	?	2%	.	-19%	9	14
COc1cc(NS(=O)(=O)c2ccc(NC(C)=O)cc2)cc(OC)c1	0.4%	-23%	-8%	-2.0	2%	7	-7
COCCNC(=O)c1cn(CCOC)c(=O)c2c1c1ccccc1n2C	3.9%	-7%	15%	1.5	4%	0	-1

Reformatted bar-delimited: entries from further up
smiles | ClpP mod | gsp antag | gsp agonist | Menin MLL FP FL | Sfp PPTase inh | CtBP-E1A inh | TRPV1 PAM
COc1ccccc1NC(=O)C1CCCN(S(=O)(=O)c2c(C)noc2C)C1 (centres undefined) | . | -3% | ? | -2.6 | 12% | -1 | -4
CC(=O)NCCC(=O)Nc1cc(S(=O)(=O)N2CCOCC2)ccc1Oc1ccc(F)cc1 | . | 3% | 28%[15.4 µM] | . | . | 3 | 25

The results go on.
SMILES	ClpP mod	gsp antag	gsp agonist	Menin MLL FP FL	Sfp PPTase inh	CtBP-E1A inh	TRPV1 PAM
Cc1ccn2cc(CSc3ccccc3)nc2c1	-4.3%	-3%	4%	-2.5	17%	3	16
Cc1nc(S/C(C(=O)O)=C2/C(=O)Nc3ccccc32)n[nH]1	-0.4%	2%	17%	3.0	?	.	-4
CC1CCN(C(=O)c2scc3c2OCCO3)CC1	-1.3%	4%	0%	7.7	16%	-2	1
COc1cc(C(=O)NCCC(=O)NCCc2ccc(Cl)cc2)cc(OC)c1OC	-0.9%	1%	?	0.5	7%	0	?
O=C(CN1CCN(Cc2ccc(Cl)cc2)CC1)N/N=C/c1ccccc1F	0.5%	-4%	13%	5.1	8%	.	-3
COc1ccc(CNC(=O)CN2C(=O)c3ccccc3S2(=O)=O)cc1	.	-4%	23%[15.4 µM]	.	.	1	.
CNC(=S)NCCc1c[nH]c2ccc(OC)cc12	-1.9%	1%	7%[15.4 µM]	-1.7	7%	-11	-4
